# Source: PubChem BioAssay (ICCB-Longwood Screening Facility, Harvard Medical School)
# UCH37 DUB inh – inhibitors of human UCH37 deubiquitinase, primary screen, biochemical, Ub-AMC cleavage, fluorescence | Ubiquitin carboxyl-terminal hydrolase isozyme L5 (Homo sapiens), Q9Y5K5 | purified proteasome/UCH37 | inhibition, % (no concentration beside the values) | 0.33% of 330,000 active;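 active = mean of two replicates above 20%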;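 note: 0% = compound-free wells with enzyme and 100% = wells lacking proteasome; stock transfer was 100 nL into about 20 µL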
# Target sequence (Q9Y5K5 whole entry, looked up): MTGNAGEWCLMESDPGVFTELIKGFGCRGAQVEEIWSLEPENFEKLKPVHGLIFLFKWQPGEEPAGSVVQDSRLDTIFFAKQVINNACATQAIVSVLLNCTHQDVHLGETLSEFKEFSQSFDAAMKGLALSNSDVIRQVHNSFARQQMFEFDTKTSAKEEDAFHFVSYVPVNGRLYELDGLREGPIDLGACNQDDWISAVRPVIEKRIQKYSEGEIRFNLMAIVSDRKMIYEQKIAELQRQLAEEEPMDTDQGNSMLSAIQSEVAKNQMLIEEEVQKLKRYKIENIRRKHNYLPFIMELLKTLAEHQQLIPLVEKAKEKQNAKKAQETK
#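 Reagent: Ub-AMC substrate; assay system: Proteasome-associated human UCH37 deubiquitinase; controls: no-proteasome and no-compound wells; read-out: % inhibition of Ub-AMC cleavage fluorescence; timing: 30 min preincubation with enzyme, 25 min cleavage at room temperature; signal: AMC fluorescence from Ub-AMC cleavage, excitation 355 nm, emission 460 nm; buffer or medium: Tris-HCl pH 7.4 plus ovalbumin, ATP-MgCl2, DTT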
# E coli growth – E. coli growth inhibition, primary screen, OD600; Escherichia coli growth, 23 h; hits give low values; OD600 absorbance (no concentration beside the values); 0.21% of 330,000 active;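 active = OD600 absorbance below the run mean of sample wells minus 3.6 SD, in any replicate, cut at about 0.56 in these data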;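 note: stock transfer was 300 nL into about 60 µL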
# The depositor's hits bear a star. An excerpt, so the mix of outcomes need not match the whole.
Molecule,UCH37 DUB inh,E coli growth
O=C(NN=Cc1ccncc1)c1cccc(S(=O)(=O)Nc2ccc(Cl)cc2)c1,5.3,0.7
O=C(Cc1ccccc1)NCC(=O)NN=Cc1ccc(Cl)cc1,0.6,0.68
O=C(Cn1cnc2ccccc21)NN=Cc1cccs1,1.6,0.64
CCCN1C(=O)C(=NOCC(=O)NC23CC4CC(CC(C4)C2)C3)c2ccccc21,2.4,0.7
COc1ccc(C=NNC(=S)SC)cc1OC,5.9,0.6
Cc1cc(C)c(C=NNC(=O)c2nnn(-c3nonc3N)c2COc2ccc(F)cc2)c(C)c1,4.0,0.63
CC(=O)Nc1ccc(C(=O)NN=Cc2ccc(F)cc2)cc1,1.0,0.72
Cc1nc(N=Cc2ccc(N(C)C)cc2)sc1C,2.3,0.69
COc1cc(OC)nc(N=CN(C)C)n1,0.6,0.71
Cc1ccc(S(=O)(=O)NN=Cc2ccc(OCC(=O)NC(C)C)cc2)cc1,28*,0.73
CC(=NNC(=O)c1c(Cl)cnn1C)c1cccc(NC(=O)COc2ccccc2)c1,-93,0.67
CC(/C=C/c1ccco1)=NNC(=O)C(O)c1ccccc1 (stereo unspecified),11,0.66
N#CCCn1cc(C=NNC(=O)c2ccncc2)c(-c2ccccc2)n1,4.7,0.7
Cc1cc(-c2ccccc2)nc(NN=Cc2ccco2)n1,7.0,0.71
O=C(NN=C/C(Cl)=C\c1ccccc1)c1ccco1,10,0.63
Cc1nnsc1C(=O)NN=Cc1ccccc1,-1.1,0.72
C/C(C=NNc1nc2ccccc2[nH]1)=C\c1ccccc1,-9.6,0.51*
CC(/C=C/c1ccccc1)=NNc1nc2c(c(=O)[nH]c(=O)n2C)n1CCO,9.0,0.62
CC(=NNC(=O)COc1ccccc1F)c1cc2ccccc2o1,-0.6,0.64
COc1cc(C=Nn2c(-c3ccccc3)n[nH]c2=S)ccc1O,6.3,0.69
CC(/C=C/c1ccccc1F)=NNC(=O)c1ccc(Cl)cc1,5.1,0.67
Cc1c(C(=O)NN=Cc2ccc(O)cc2)sc(=S)n1C,-4.7,0.7
Cc1ccc(C=NNC(=O)Cc2ccc(O)cc2)s1,3.5,0.66
CCCN(C=Nc1sc2c(c1C#N)CCCCC2)CCC,2.5,0.66
Cc1cccc(OCC(=O)NN=C/C=C/c2ccc3c(c2)OCO3)c1C,-10,0.85
O=C(CSc1cccc2cccnc12)NN=Cc1cccc(O)c1,-45,0.58
Cc1ccsc1C=NNC(=O)Nc1ccccc1,-2.4,0.7
O=C(NN=CCCc1ccccc1)c1ccco1,0.4,0.67
COc1ccc(Br)cc1C=c1sc2nc(-c3ccco3)nn2c1=O,-0.7,0.73
O=C(Cc1ccccc1)NN=Cc1cccnc1,-2.5,0.67

# (next part)
Molecule,UCH37 DUB inh,E coli growth
CON=CC(NC(=O)c1ccc(C(F)(F)F)cc1)C(=O)OC (stereo unspecified),0.5,0.72
CN(N=Cc1ccc(N(C)C)cc1)C1=NS(=O)(=O)c2ccccc21,-0.1,0.66
Cc1nnc(NN=Cc2ccccc2F)n1N,0.5,0.68
CC1(C)CC(=NO)c2cc3c(nc2C1)CCCC3,-0.2,0.69
CC(=NNC(=O)CNC(=O)c1ccccc1)c1ccc(C)cc1,2.4,0.71
Oc1ccc(C=NNc2ccc3ccccc3c2)c(O)c1,-5.9,0.71
Cn1cc(Cl)c(C(=O)NN=Cc2ccc(OS(=O)(=O)c3ccccc3)cc2)n1,-0.7,0.7
Cc1ccccc1-n1nc(-c2cccnc2)cc1C(=O)NN=Cc1ccncc1,-0.7,0.66
C1CCN(c2nc(N3CCCC3)nc(N3CCNCC3)n2)C1,3.9,0.76
COc1ccccc1C=NNC(=O)c1[nH]c(C)c(C(=O)NN=Cc2ccccc2OC)c1C,11,0.71
Nc1nonc1-n1nnc(C(=O)NN=Cc2ccccn2)c1CNc1ccccc1,0.2,0.7
COc1cc(C=NNC(=O)c2cnn3c(C)cc(-c4ccccc4)nc23)ccc1O,5.5,0.81
Cc1cc(C)nc(NN=Cc2ccc([N+](=O)[O-])o2)n1,13,0.7
COc1cc(C=NOCC(=O)NC23CC4CC(CC(C4)C2)C3)ccc1OCc1ccccc1,7.3,0.76
COC(=O)NN=Cc1c(C)nn(-c2ccccc2)c1Cl,-1.9,0.68
CC(C)NC(=S)NN=CC1=CCC2CC1C2(C)C (stereo unspecified),2.6,0.71
CC(CC(=O)Nc1ccccc1Br)=NNC(=O)C(=O)N1CCCC1,-1.3,0.67
COc1cc(C=NNC(=O)c2ccc(NC(=O)C3CC3)cc2)ccc1OC(C)=O,-3.2,0.65
CCON=C(C)c1c(O)cc(C(C)C)n(-c2ccccc2)c1=O,1.2,0.67
CCC(C=NNC(=O)CCCCC(=O)NN=CC(CC)CC)CC,7.3,0.68
Nc1nonc1-n1nnc(C(=O)NN=Cc2ccccc2Cl)c1-c1ccccc1,1.5,0.7
CC(=NNC(=O)CNC(=O)/C=C/c1ccccc1)c1ccco1,2.4,0.71
CCNC(=O)COc1ccc(C=NNC(=O)c2cccnc2)cc1OC,5.1,0.72
Cc1ccc(C=NNC(=O)c2ccccn2)s1,8.8,0.64
O=C(CON=Cc1ccc(OC(F)F)cc1)NC1CCCCC1,-0.5,0.72
COC(=S)NC(=NS(=O)(=O)c1ccc(Cl)cc1)c1ccccc1,1.3,0.67
CC(=NNC(=O)c1cccc(N2CCCC2=O)c1)c1ccncc1,0.2,0.72
CC(=NNC(=O)CNC(=O)c1ccc2c(c1)OCCO2)c1ccco1,4.6,0.64
Oc1c(Br)cc(C=Nn2c(-c3ccccc3)n[nH]c2=S)c(O)c1Br,14,0.64
CC(=NNC(=O)c1nn(C)c(C)c1Br)c1ccc(NC(=O)c2ccoc2C)cc1,-18,0.69

# The final two entries of the section above come first, to join the parts:
Molecule,UCH37 DUB inh,E coli growth
Oc1c(Br)cc(C=Nn2c(-c3ccccc3)n[nH]c2=S)c(O)c1Br,14,0.64
CC(=NNC(=O)c1nn(C)c(C)c1Br)c1ccc(NC(=O)c2ccoc2C)cc1,-18,0.69
Clc1ccc(C=NNc2ccccn2)cc1,0.1,0.65
CC(=O)C(=NNc1ccccc1Cl)Sc1nnc(-c2ccccc2)n1-c1ccccc1,3.3,0.69
CON=C(Cn1ncc(NC2CCCCC2)c(Br)c1=O)c1ccc(Cl)cc1,0.6,0.79
COCc1cc(C)nc(NN=Cc2ccc(-c3ccc(Cl)cc3[N+](=O)[O-])o2)c1C#N,9.2,0.71
COc1ccc(C=NNS(=O)(=O)c2ccccc2)cc1OS(=O)(=O)c1ccc(C)cc1,7.2,0.73
COc1ccccc1C=NNc1nc(C)c(C(C)=O)s1,-0.8,0.8
COCCn1cnc2c(c1=O)c1nc3ccccc3nc1n2N=Cc1ccc(OC)c(OC)c1,9.8,0.7
O=C(NN=Cc1cccc(Cl)c1)c1ccc(Cn2cccn2)o1,1.3,0.64
CC(=NNC(=O)c1ccccc1C)c1cccc([N+](=O)[O-])c1,1.9,0.69
COc1cccc2cc(C(=O)Nc3ccccc3C)c(=NO)oc12,1.9,0.69
Cc1cc(C)nc(N2CCN(c3nc(C)cc(C)n3)CC2)n1,-0.3,0.69
CN(C)C=Nc1cc(=O)n(C)c(=O)n1CC1CC1,0.9,0.71
Cc1nn(C)c(C(=O)NN=Cc2cccc3ccccc23)c1Cl,1.0,0.7
CCN(CC)c1ccc(C=Nn2nnnc2N)c(O)c1,-46,0.66
Cc1occc1C(=O)NN=C/C(Br)=C\c1ccccc1,2.0,0.61
C(=NNc1nn[nH]n1)c1ccccc1,3.0,0.69
O=c1nccc(NN=Cc2ccccc2O)[nH]1,5.0,0.66
CCCOc1ccc(-c2c(C(=O)NN=Cc3ccco3)nnn2-c2nonc2N)cc1,-5.9,0.64
CC(=O)Oc1ccc(C=NNC(=O)CCSc2ccccc2)cc1,3.1,0.69
COc1ccc(CNC(=O)C(C)OC(=O)CON=C(C)c2ccc3c(c2)OCO3)cc1 (stereo unspecified),1.3,0.67
COc1ccc(C(=O)Oc2cc(C=NNS(=O)(=O)c3ccc(C)cc3)ccc2OC)cc1,-0.6,0.65
C(=NN1CCN(Cc2ccccc2)CC1)c1ccc(-c2ccccc2)cc1,7.9,0.71
CCOC(=O)C1=C(N)n2c(sc(=Cc3ccco3)c2=O)=C(C(=O)OCC)C1c1ccco1 (stereo unspecified),3.4,0.69
CC(=O)Nc1ccc(C=NNC(=O)CCN2CCN(c3ccccc3)CC2)cc1,2.9,0.67
O=C(CC(=O)NC1CCCCC1)NN=Cc1ccc(Cl)cc1,27*,0.72
CC(=O)c1ccc(N2C(=O)C3C(C2=O)C(C(=O)c2ccc(Cl)cc2)N2CCCC32)cc1 (stereo unspecified),-1.4,0.81
O=S(=O)(ON=C1CCCc2ccccc21)c1ccccc1,0.7,0.74
CCOc1ccc(C(C)=NN2C(=O)C(CC(=O)Nc3ccc(OC)cc3[N+](=O)[O-])SC2=Nc2cccc(C)c2C)cc1 (stereo unspecified),10,0.66
O=C(NN=Cc1c(O)ccc2ccccc12)Nc1ccccc1,1.2,0.66
CC(=O)NN=C(C)c1ccc2c(c1)OCCO2,0.8,0.7

# The listing continues.
Molecule,UCH37 DUB inh,E coli growth
O=C(O)c1ccccc1NN=Cc1cc(Br)cc(Br)c1O,8.7,0.61
CCC(C)[C@H](NC(=O)OC(C)(C)C)C(=O)NN=Cc1ccc2nccnc2c1 (stereo partly specified),4.9,0.64
COc1ccc(C(C)=NNc2ccc(F)cc2F)c(O)c1,4.6,0.71
CCOc1cc(C=NNC(=O)c2ccc(C)nc2)cc([N+](=O)[O-])c1O,27*,0.68
COc1cc(C=NNc2ccc(Cl)c(C(=O)O)c2)ccc1OC(=O)c1ccco1,12,0.68
CCN(CC)S(=O)(=O)c1cccc(C(=O)NN=Cc2ccc([N+](=O)[O-])o2)c1,3.4,0.7
COCCNC(=S)NN=C(C)c1ccc(Cl)c(Cl)c1,1.1,0.64
COc1ccc(C=Nn2c(-c3ccco3)nc3ccccc3c2=O)cc1,6.3,0.66
O=C(NN=Cc1cn(-c2ccccc2)nc1-c1cccs1)c1ccc(Cl)cc1,3.1,0.7
O=[N+]([O-])c1cc(C=NO)ccc1Sc1ccccc1,-0.9,0.76
COc1cccc(C2C3=C(N=c4sc(=Cc5cccc(O)c5)c(=O)n42)c2ccccc2CC3)c1OC (stereo unspecified),5.0,0.73
S=c1[nH]nc(-c2cccnc2)n1N=C/C=C/c1ccco1,14,0.72
O=[N+]([O-])c1cc2c(cc1C=Nn1c(-c3ccccn3)n[nH]c1=S)OCO2,5.0,0.69
CCn1c2ccccc2c2cc(C(C)=NO)ccc21,0.1,0.69
COc1ccc2c(c1)c1ncnc(N3CCN(Cc4ccc5c(c4)OCO5)CC3)c1n2C,-38,0.68
COc1cccc(C=NNC(=O)Cn2ccnc2C)c1,5.9,0.68
CC(=O)C(=NNc1ccccc1)N1CCOCC1,12,0.7
CCN(CC)Cc1c(C(=O)NN=Cc2ccccn2)nnn1-c1nonc1N,2.6,0.7
CC(=O)NCc1ccc(S(=O)(=O)NN=Cc2ccccc2)cc1,2.1,0.69
Cc1cccc(C(=O)NN=Cc2ccoc2)c1,-2.6,0.71
O=C(NN=Cc1sc(N2CCOCC2)nc1-c1ccccc1)c1ccccc1F,2.3,0.7
CC(=O)C(CN1CCCCC1)=NO,2.4,0.69
CCN(CC)S(=O)(=O)c1cccc(C(=O)NN=C(C)c2ccc(O)cc2O)c1,-4.0,0.7
C#CCOc1c(Cl)cc(C=NO)cc1OC,1.6,0.71
Cn1c(=O)c2c(ncn2CCCNC2=CC(C)(C)CC(=O)C2)n(C)c1=O,0.6,0.72
Cc1ccc(C)c(OCCCC(=O)Nc2ccc(N3CCOCC3)cc2)c1,1.7,0.65
Nc1c(Cl)ncnc1NN=Cc1cccnc1,14,0.67
CC(=NNC(=O)CSc1nc2ccccc2o1)c1cccc(O)c1,-1.8,0.67
COc1ccc(C=NNc2nc3ccccc3o2)cc1OC,-4.7,0.64
CN(C)c1ccc(C=NNS(=O)(=O)c2ccc(Br)cc2)cc1,4.0,0.69

# UCH37 DUB inh, hit marks shown above.
molecule	UCH37 DUB inh
Cc1ccc(S(=O)(=O)NN=Cc2ccc(OCC(=O)NC(C)C)cc2)cc1	28*
O=C(CC(=O)NC1CCCCC1)NN=Cc1ccc(Cl)cc1	27*
CCOc1cc(C=NNC(=O)c2ccc(C)nc2)cc([N+](=O)[O-])c1O	27*

# More entries:
Molecule,UCH37 DUB inh,E coli growth
CC(C)(C)c1cc(C=NNC(=O)C[n+]2ccccc2)cc(C(C)(C)C)c1O,4.6,0.68
Cc1ccc(S(=O)(=O)Oc2cccc(C=NNc3ccc(C(=O)O)cc3)c2)cc1,-6.0,0.68
O=C(NN=Cc1ccc(N2CCOCC2)cc1)c1ccncc1,15,0.67
COCc1cc(C)nc(OCC(=O)NN=Cc2ccco2)c1C#N,-56,0.7
